Screening data deposited in PubChem BioAssay by Johns Hopkins Ion Channel Center.
KCNQ2 pot: KCNQ2 (rat) channel potentiation. CHO-K1 KCNQ2, FluxOR thallium flux fluorescence; active compounds read high. B-score at 10 µM. 310,000 compounds, 0.54% hits;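 active means fluorescence ratio B-score at least 3 SD of library B-scores, with initial fluorescence B-score within 3 SD, cut at about 5.3 in these data; same plate scores as AID 2156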;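 further: B-score of peak minus minimum over baseline fluorescence ratio after K+ and Tl+ stimulus; positive B-score means potentiation of KCNQ2 with more thallium influx and brighter signal; only the inactives scoring about 0 or higher are listed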
Target sequence (O88943 whole entry, looked up): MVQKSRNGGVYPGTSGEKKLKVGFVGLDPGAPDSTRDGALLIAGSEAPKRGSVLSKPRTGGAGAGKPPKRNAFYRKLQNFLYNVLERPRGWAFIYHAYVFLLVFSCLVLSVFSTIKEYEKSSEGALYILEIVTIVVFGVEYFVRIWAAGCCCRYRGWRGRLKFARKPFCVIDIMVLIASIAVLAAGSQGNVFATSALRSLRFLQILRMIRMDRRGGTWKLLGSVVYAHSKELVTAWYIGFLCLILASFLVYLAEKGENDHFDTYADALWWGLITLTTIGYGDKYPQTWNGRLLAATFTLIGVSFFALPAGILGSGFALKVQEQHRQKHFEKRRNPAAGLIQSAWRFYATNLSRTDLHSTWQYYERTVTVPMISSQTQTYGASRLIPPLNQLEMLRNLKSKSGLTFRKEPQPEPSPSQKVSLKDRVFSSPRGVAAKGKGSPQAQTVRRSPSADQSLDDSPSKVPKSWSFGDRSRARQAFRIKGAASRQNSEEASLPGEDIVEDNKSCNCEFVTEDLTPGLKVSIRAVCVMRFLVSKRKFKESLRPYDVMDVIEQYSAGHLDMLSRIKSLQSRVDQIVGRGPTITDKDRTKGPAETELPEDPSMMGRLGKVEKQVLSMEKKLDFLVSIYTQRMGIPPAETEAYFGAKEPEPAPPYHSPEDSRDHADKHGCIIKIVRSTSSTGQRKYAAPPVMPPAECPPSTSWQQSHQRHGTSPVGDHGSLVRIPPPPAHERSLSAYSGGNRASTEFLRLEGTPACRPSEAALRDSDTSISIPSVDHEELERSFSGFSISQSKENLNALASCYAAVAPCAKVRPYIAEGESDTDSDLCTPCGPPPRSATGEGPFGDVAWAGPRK
KCNQ2 pot baseline: recorded beside KCNQ2 pot, whose call it bears; B-score; compound at 10 µM; measured here: initial fluorescence intensity artifact check;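 brightness before thallium and not channel activity; 0 = typical well and far values either way flag optical interference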
* hit, by the source's call.

KCNQ2 pot,KCNQ2 pot baseline,SMILES
0.79,0,COC(=O)c1ccc(/C=N/Nc2nc3ccccc3[nH]2)cc1
0.08,0.65,CN(/N=C/c1cccnc1)c1cnn(-c2ccc(F)c(Cl)c2)c(=O)c1Cl
0.01,8.88,O=C1/C(=C/c2ccccn2)COc2ccccc21
0.65,-1.03,O=C(/C=C/c1ccc(F)cc1)NC(=S)NNC(=O)c1cnccn1
0.06,-0.57,CCN1CCN(S(=O)(=O)c2cc3c(cc2Cl)NC(=O)CO3)CC1
0.66,0.05,COc1ccccc1OCC(=O)Nc1ccc(NC(=O)COc2ccccc2OC)cc1
0.41,-1.53,c1ccc(C2CC(c3cccs3)n3nnnc3N2)cc1 (centres undefined)
0.61,0.25,Cc1cc2nc(-c3ccc(SCc4ccc(C(=O)O)cc4)nc3)[nH]c2cc1C
1.38,-2.31,Cn1cnnc1SCc1nc(N)nc(Nc2ccccc2)n1
17.6*,-0.97*,CC(C)CC(NC(=O)C1CCCCC1)C(=O)NC(C)c1ccccc1 (centres undefined)
0.23,-0.22,O=C(CSc1ccc(F)cc1)NNC(=O)c1ccccc1Br
0.52,-0.17,CN(CC(=O)NC(=O)NCc1ccco1)CC(=O)Nc1ccccc1Cl
0.01,-0.83,COc1ccc(C2CC(C)=C(C#N)S(=O)(=O)C2C#N)cc1 (centres undefined)
0.07,-0.18,CCS(=O)(=O)c1ccc2c(c1)NC(=O)C(CCCl)O2 (centres undefined)
1.1,1.2,Cc1ccc(N(C(=O)c2ccco2)C(C(=O)NC2CCCC2)c2cccnc2)cc1C (centres undefined)
0.24,0.16,N#Cc1c(C(F)(F)F)cc(-c2cccs2)nc1SCc1cccnc1
0.92,0.39,Cc1cccc(C)c1NC(=O)CCS(=O)(=O)c1ccc(Br)cc1
0.28,1.81,CC(C)CC(NS(=O)(=O)c1ccc2c(c1)oc(=O)n2C)C(=O)NC1CCCc2ccccc21 (centres undefined)
0.61,-1.79,COc1ccc2[nH]c(=O)c(CN(Cc3cccs3)Cc3nnnn3C(C)(C)C)cc2c1
1.56,-0.06,CCc1ccc(-c2nnn(CCC(=O)OC)n2)cc1
0.09,0.83,CSc1ncccc1C(=O)NCC(c1cccs1)N1CCOCC1 (centres undefined)
0.78,0.2,CCN(CC(=O)N1CCC(C)CC1)S(=O)(=O)c1ccc(C)cc1
1.37,1.19,CC(=O)Cc1nsc(NC(=O)c2ccc(COc3cccc(C)c3)o2)n1
1.65,-0.68,CCOC(=O)C1CCCN(Cc2cn[nH]c2-c2ccc(F)cc2F)C1 (centres undefined)

Gathered by group, those above containing a carbonyl joined to an NH by a bond outside any ring.
KCNQ2 pot,KCNQ2 pot baseline,SMILES
0.65,-1.03,O=C(/C=C/c1ccc(F)cc1)NC(=S)NNC(=O)c1cnccn1
0.66,0.05,COc1ccccc1OCC(=O)Nc1ccc(NC(=O)COc2ccccc2OC)cc1
17.6*,-0.97*,CC(C)CC(NC(=O)C1CCCCC1)C(=O)NC(C)c1ccccc1 (centres undefined)
0.23,-0.22,O=C(CSc1ccc(F)cc1)NNC(=O)c1ccccc1Br
0.52,-0.17,CN(CC(=O)NC(=O)NCc1ccco1)CC(=O)Nc1ccccc1Cl
1.1,1.2,Cc1ccc(N(C(=O)c2ccco2)C(C(=O)NC2CCCC2)c2cccnc2)cc1C (centres undefined)
0.92,0.39,Cc1cccc(C)c1NC(=O)CCS(=O)(=O)c1ccc(Br)cc1
0.28,1.81,CC(C)CC(NS(=O)(=O)c1ccc2c(c1)oc(=O)n2C)C(=O)NC1CCCc2ccccc21 (centres undefined)
0.09,0.83,CSc1ncccc1C(=O)NCC(c1cccs1)N1CCOCC1 (centres undefined)
1.37,1.19,CC(=O)Cc1nsc(NC(=O)c2ccc(COc3cccc(C)c3)o2)n1

Additional results.
KCNQ2 pot,KCNQ2 pot baseline,SMILES
1.35,-0.27,c1ccc(-c2nn3c(C4CCCCC4)nnc3s2)cc1
0.3,-0.94,O=c1c(F)cn(C2CCCO2)c(=O)n1Cc1ccccc1Cl (centres undefined)
0.53,0.19,Cc1cc(NC(=O)CC2CCCC2)n(-c2nc3ccccc3[nH]2)n1
1.06,-0.48,Cc1ccc(NC(=O)c2noc3c2CC(C(C)(C)C)CC3)cc1 (centres undefined)
1.07,0.45,O=C(Nc1cccc([N+](=O)[O-])c1)Nc1cnccn1
0.67,-1.59,Cn1c(=O)c(=O)n(C)c2cc(N3CCCCC3)c(NS(=O)(=O)c3ccc([N+](=O)[O-])cc3)cc21
0.6,-0.3,S=C1NC(c2ccccc2)N2C(=S)NC(c3ccccc3)N12 (centres undefined)
0.96,-1.13,Cn1c(CNC(=O)c2ccco2)nnc1SCC(=O)c1ccccc1
0.09,-0.45,CCOc1ccc(NC(=O)c2ccc(-c3csc(C)n3)cc2)cc1
1.48,0.86,COc1ccc(C(=O)NCC(c2cccnc2)N2CCN(c3ccccc3OC)CC2)cc1OC (centres undefined)
1.21,-0.72,COc1cc(C(=O)/C=C/Nc2ccc(NC(C)=O)cc2)cc(OC)c1OC
1.05,3.18,Cc1ccc(CNS(=O)(=O)NCc2ccc(Cl)cc2)cc1
1.97,-0.26,COC(=O)Cc1c(C)[nH]n(-c2cc(Cl)cc(Cl)c2)c1=O
0.88,1.73,Cc1ccc(S(=O)(=O)CCN2CCN(c3ccccc3)CC2)cc1
0.19,2.76,CCCCNC(=O)c1onc(CCl)c1C(=O)OC
0.08,2.66,O=C(c1ccc2ccccc2c1)N1CCCC1
0.51,1.07,COc1ccc(S(=O)(=O)N(CC(=O)O)Cc2ccccc2)cc1OC
1.86,0.73,Nc1ccc2c(c1)COc1ccccc1O2
0.44,0.17,CC1CCN(CCOc2ccc(Cl)c(Cl)c2)CC1
1.09,-0.09,CC(C)(C)SC(=O)CC1NS(=O)(=O)OC2CCCCC12 (centres undefined)
0.83,-0.16,CCN(CC)S(=O)(=O)c1ccc(-c2nnc(SCC(=O)N3CCOCC3)o2)cc1
0.5,0.48,CCc1nc(SCc2cc(Cl)ccc2OC)n[nH]1
0.44,1.39,CCOC(=O)c1c(S(=O)(=O)Nc2ccc(C)cn2)c(C)n(C)c1C
0.37,1.15,O=c1c2sc3nc(N4CCOCC4)c4c(c3c2ncn1-c1ccccc1)CCCC4
0.55,-1.12,Nc1nccnc1C(=O)OCC(=O)Nc1cccc(S(=O)(=O)N2CCCCC2)c1
1.46,-1.31,C=CCN(CC=C)C(=O)c1ccc(OC2CCN(Cc3ccccn3)CC2)cc1
0.12,0.87,Nc1ccc(C(=O)OCC(=O)NC(=O)c2ccccc2)cc1[N+](=O)[O-]
0.23,-0.99,Cc1ccc(C(=O)Nc2nnc(C)s2)o1
0.03,2.28,O=C(CSCc1ccc([N+](=O)[O-])cc1)NN=C1CCCCCC1
1.67,-1.19,COC(=O)N/N=C/c1cc(C)n(-c2ccc(F)cc2)c1C
0.76,-0.03,Cc1cc(C)n(C2CC(=O)N(c3cccc(Cl)c3)C2=O)n1 (centres undefined)
0.23,0.54,Cc1ccc2c(COC(=O)CNC(=O)c3ccccc3)cc(=O)oc2c1
0.5,0.42,CCc1ccc(CCC(=O)Nc2ccccc2C(=O)O)o1
0.03,0.03,COc1ccc(NC(=O)c2cc(OC)c(OC)cc2OC)c(S(=O)(=O)N2CCOCC2)c1
1.17,-1.24,Cc1cc(N)n(-c2ccc(S(=O)(=O)N3CCOCC3)cc2[N+](=O)[O-])n1
1.85,0.1,COc1c2c(cc3oc(=O)ccc13)OC(C)(C)C=C2
1.34,-0.93,Cc1ccc(N(CC(=O)NCCSc2ccccn2)S(C)(=O)=O)cc1
0.63,-0.54,NS(=O)(=O)OCc1ccc(C(F)(F)F)cc1
0.5,-2.38,O=C(NC(=S)NCC1CCCO1)c1ccccc1[N+](=O)[O-] (centres undefined)
0.05,0.04,COc1c(F)c(F)c(C(=O)Nc2ccc3oc(-c4ccncc4)nc3c2)c(F)c1F
0.03,0.25,CC(=O)NCCOC(=O)Nc1cccnc1
0.69,1.08,CCn1c(SCC(=O)NCc2ccco2)nc2c(c1=O)SC(C)C2 (centres undefined)
2.95,0.93,CCC(C)/C=C/C1=CC2=C(Cl)C(=O)C3(C)OC(=O)C(C(=O)C(C)C(C)O)C3C2=CO1 (centres undefined)
0.28,-1.98,COc1ccc(CC2=C(O)c3ccccc3C(=O)C2=O)cc1
2.24,-0.98,CCOc1ccccc1NC(=O)CN(c1nccs1)S(=O)(=O)c1ccc(N)cc1
1.22,-0.16,Cc1ccc2nc(C(F)OC(F)(F)F)[nH]c2c1 (centres undefined)
0.07,-1.15,O=C(Nc1cccnc1)/C(N=Nc1ccc(Cl)c(C(F)(F)F)c1)=C(\O)c1ccccc1
0.83,0.16,CN(C)c1nc(C(=O)O)nc(N2CCOCC2)n1
0.02,-0.49,Cc1ccc(S(=O)(=O)N2CCOCC2)cc1C(=O)NCc1cn2ccsc2n1
0.03,1.67,O=C(NCCNC(=O)c1cnccn1)c1ccc(Cl)c(Cl)c1
1.05,-0.58,Cc1c(-c2cccc(Cl)c2)nc2ccccc2c1C(=O)OCC(=O)N(C)C1CCS(=O)(=O)C1 (centres undefined)
0.18,-0.29,COC(=O)c1cc(C#N)c(=O)[nH]c1C
11.8*,-2.43*,Oc1ccc(Br)cc1-c1ccn[nH]1
0.42,-1.31,COC(=O)CC/C(=N/Nc1ccc(Cl)c(Cl)c1)C(=O)OC
0.94,-1.08,COC(=O)c1[nH]c2cc(C)ccc2c1NC(=O)CN1CCN(C(=O)c2ccco2)CC1
0.92,-0.26,CCOC(=O)c1ccc(NC(=O)Nc2cccc(C)n2)cc1
0.07,0.98,Cc1c(Cc2ccccc2)c(=O)oc2cc(OCc3nn[nH]n3)ccc12
2.69,-1.26,CCCCOc1ccc(C(=O)Nc2cccc(-n3cnnn3)c2)cc1OC
2.53,0.27,COCCNC(=O)c1onc(CSc2cccc(Cl)c2)c1C(=O)O
0.7,-0.2,Cc1ccc(NC(=O)CCNS(=O)(=O)c2cccc3nsnc23)cc1F

More records.
KCNQ2 pot,KCNQ2 pot baseline,SMILES
1.45,-1.26,CCOc1ccc(Cl)cc1/C=N/NC(N)=O
0.77,0.13,Cc1ccc(OC(=O)CN2C(=O)c3ccccc3C2=O)cc1C
0.55,1.52,Cc1cc(NC(=O)c2nn3cccnc3c2Cl)no1
2.09,0.08,CCC(=O)Nc1ccc(NC(=S)NC(=O)/C=C/c2ccccc2)cc1
0.05,0.57,COc1ccc(NC(=O)COC(=O)C2CCC(C(C)(C)C)CC2)c([N+](=O)[O-])c1 (centres undefined)
0.05,2.13,COc1ccc(NC(=S)N(CCCN2CCCC2)Cc2cccn2Cc2ccc(Cl)cc2)cc1Cl
0.52,-0.1,C=C(C)CC1N(c2cccc(OC)c2)C(=O)[C@@H]2C(C(=O)O)[C@H]3C=C[C@@]12O3 (some centres undefined)
18.9*,1.1*,CCCCCCCCCn1c2c(c(=N)c3c1CCC3)CCCC2
0.87,0.7,CN(CCCNC(=O)c1ccc(CS(=O)c2ccc(Br)cc2)o1)Cc1ccccc1 (centres undefined)
1.65,0.79,Fc1cccc(Cl)c1CSc1ccc(-c2cccnc2)nn1
0.01,-0.63,CN(C)c1ccc(N2CN=C3SCC(=O)N3C2)cc1
1.43,0.89,O=S(=O)(Nc1ccccc1O)c1ccc(Cl)nc1

A section taken from the entries so far:
KCNQ2 pot,KCNQ2 pot baseline,SMILES
0.79,0,COC(=O)c1ccc(/C=N/Nc2nc3ccccc3[nH]2)cc1
0.08,0.65,CN(/N=C/c1cccnc1)c1cnn(-c2ccc(F)c(Cl)c2)c(=O)c1Cl

New compounds follow.
KCNQ2 pot,KCNQ2 pot baseline,SMILES
0.4,0.13,O=[N+]([O-])c1ccccc1S(=O)(=O)N(CC1CO1)c1ccccc1 (centres undefined)
0.73,-1.93,Cc1ccc(NC(=O)Nc2cccc([N+](=O)[O-])c2)nc1
0.22,-0.44,COc1ccc(CNC(=O)CCc2nc3cc(S(=O)(=O)N(C)C)ccc3n2C)cc1OC
0.03,-0.55,O=C(CSc1nnc(-c2ccncc2)n1-c1ccc(Cl)cc1)N1CCOCC1
1.5,0.22,CCOc1ccc(NC(=S)NC(=O)c2cnn(CC)c2)c([N+](=O)[O-])c1
0.26,-0.02,O=C(Nc1cccc([N+](=O)[O-])c1)C(=O)N1CCCCC1
1.31,1.63,CCS(=O)(=O)N1N=C(c2ccccc2)CC1c1ccc2nccnc2c1 (centres undefined)
0.25,-0.86,C#CCOCCOCCOCCNc1nc(N2CCN(C(=O)[C@H]([C@@H](C)CC)n3cc(CCC(=O)O)nn3)CC2)nc(N2CCN(C(=O)[C@H](C)n3cc(CCCN=C(N)N)nn3)CC2)n1
1.85,-0.94,Cc1ccc(S(=O)(=O)NNC(=O)c2cnn(-c3ccccc3)c2C(F)(F)F)cc1
0.29,-2.02,CCN(CC)S(=O)(=O)c1cccc(C(=O)N[C@H](C(=O)Nc2nc3ccccc3s2)C(C)C)c1
1.94,0.03,CCc1ccc(NC(=O)Cn2cc([N+](=O)[O-])nc2C)cc1
0.01,-0.57,O=C(CSCc1ccccc1)Nc1ccc(S(=O)(=O)N2CCOCC2)cc1
0.37,0.45,COc1ccc(C(C(=O)NC2CCCCC2)N(C(=O)CCl)c2ccc(C)cc2)cc1 (centres undefined)
0.88,0.64,C/C(CC(C)C)=N\NC(=O)Nc1ccccc1
0.15,-0.24,CCOCc1cc(CN2CCCC(CNC(=O)c3ccco3)C2)ccc1OC (centres undefined)
2.04,-0.97,CC(C)(C)c1ccc(-c2nnc(NC(=O)c3ccccc3)s2)cc1
0.18,-1.07,O=C(Cn1cc2c(n1)CCCC2)NCC1CCCO1 (centres undefined)
4.13,-1.81,CCC1(C)Cc2c(sc3nnn(CC(=O)Nc4cccc5ccccc45)c(=O)c23)CO1 (centres undefined)
0.05,-0.83,CC(C)Cn1c(-c2ccccc2)nc(=S)c2c1CCCC2

These rows are one share of the data; the hit share may differ from the screen's.
